Bioassay records: PubChem BioAssay, ICCB-Longwood Screening Facility, Harvard Medical School
Mtb MbtI inh – MbtI salicylate synthase inhibitors, primary screen, biochemical, fluorescence intensity; inhibition, %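 (about 17 µg/mL by stock and volumes)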; purified MbtI enzyme, fluorescence intensity read-out; 0.89% of 100,000 active; AID 493033, 2011; P9WFX0;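 active = above 50% in both replicates, above 80% if mildly self-fluorescent; inactive = the rest, strongly fluorescent compounds included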;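 also: 0% = mean of negative and 100% = mean of positive controls; one replicate is shown; some compounds called inactive have numbers as strong as hits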
PV pol inh – poliovirus RdRp elongation inhibitors, primary screen, biochemical, fluorescence polarization, total intensity | Genome polyprotein (Poliovirus type 1 (strain Mahoney)), P03300 | poliovirus polymerase elongation; stronger effect = lower value | % elongation, % (compound at 16.7 µg/mL) | 0.66% of 150,000 active; in the data active = % elongation below about 90%; also: some results filed as inactive read as strong as hits
PV pol inh intensity – recorded beside PV pol inh, whose call it bears; % elongation; measured here: total intensity read-out; formula for this scale not given here;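 total fluorescence in place of polarization; lower means less elongation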
* hit, by the source's call; / = not tested or not shown. Only part of the results is shown; count on the stated rates, not on these rows.

SMILES | Mtb MbtI inh | PV pol inh | PV pol inh intensity
CC(C)(C)C(=O)Nc1ncccn1 | -5 | / | /
COc1ccc(C(=O)Nc2nc3ccccc3n2CCOc2ccc(Cl)cc2)cc1 | / | 111 | 111
CCCCC1CCC(CCCC(C)CCC(=O)O)CC1 (stereo not drawn) | / | 89* | 88*
Cc1nc2c3ccccc3nc(NNC(=O)CCC(=O)N3CCN(c4cc(Cl)ccc4C)CC3)n2n1 | / | 107 | 110
COc1ccc(NC(=O)Cn2ccn(-c3ccc(C)c(C)c3)c(=O)c2=O)cc1Cl | / | 108 | 112
Cc1nn(CC(=O)NCCc2ccccc2)c(=O)c2c1sc1ccccc12 | / | 102 | 104
Cc1oc(-c2cccc(Cl)c2)nc1Cn1c(SCc2ccccc2F)nc2ccncc21 | / | 104 | 105
Cc1nc2c3ccccc3nc(NNC(=O)CCC(=O)N3CCN(c4ccccc4)CC3)n2n1 | / | 85* | 87*
CNC(=O)c1ccc(CSc2nc3ccncc3n2Cc2ccc(C)cc2)cc1 | / | 108 | 109

3 structures out of the list, ordered by number of heavy atoms, low to high.
SMILES | Mtb MbtI inh | PV pol inh | PV pol inh intensity
CC(C)(C)C(=O)Nc1ncccn1 | -5 | / | /
CNC(=O)c1ccc(CSc2nc3ccncc3n2Cc2ccc(C)cc2)cc1 | / | 108 | 109
Cc1nc2c3ccccc3nc(NNC(=O)CCC(=O)N3CCN(c4ccccc4)CC3)n2n1 | / | 85* | 87*

Among those listed so far, 4 have a halogen.
SMILES | Mtb MbtI inh | PV pol inh | PV pol inh intensity
COc1ccc(C(=O)Nc2nc3ccccc3n2CCOc2ccc(Cl)cc2)cc1 | / | 111 | 111
Cc1nc2c3ccccc3nc(NNC(=O)CCC(=O)N3CCN(c4cc(Cl)ccc4C)CC3)n2n1 | / | 107 | 110
COc1ccc(NC(=O)Cn2ccn(-c3ccc(C)c(C)c3)c(=O)c2=O)cc1Cl | / | 108 | 112
Cc1oc(-c2cccc(Cl)c2)nc1Cn1c(SCc2ccccc2F)nc2ccncc21 | / | 104 | 105
